Source: PubChem BioAssay
CtBP-E1A blk = inhibitors of CtBP/E1A interaction; 0.49% of 340,000 active; AlphaScreen GST-E1A/His-CtBP binding, 1536-well; stronger effect = lower value; control for the full effect not named in the record; activity change, % (test concentration not listed); in the data active means activity change below about -65%; inconclusive means about -30% to -65%; inactive means above about -30%; further: on the % scale 0 is the no-effect control and ±100 the full control effect; compound concentration not given in the record
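AlphaScreen with 125 nM GST-E1A and 125 nM His-CtBP (5X stocks) in Tris pH 8.0, 300 mM NaCl, BSA, Tween 20, TCEP. Compounds preincubated 2 h at 37 deg C, then glutathione donor/nickel acceptor beads added for 1 h at 37 deg C in dark.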
TRPV1 PAM = enhances activation of the human vanilloid receptor TRPV1; Q8NER1; TRPV1-expressing cells, Fluo-8 calcium influx, capsaicin EC20 potentiation; host cell line not named in the record; control for the full effect not named in the record; potentiation, % at 8.33 µM; 0.02% of 320,000 active; AID 540277; active means potentiation above 80%; inconclusive means 30% to 80%; inactive means below 30%; further: 0% is about no effect
Target sequence (Q8NER1 whole entry, looked up): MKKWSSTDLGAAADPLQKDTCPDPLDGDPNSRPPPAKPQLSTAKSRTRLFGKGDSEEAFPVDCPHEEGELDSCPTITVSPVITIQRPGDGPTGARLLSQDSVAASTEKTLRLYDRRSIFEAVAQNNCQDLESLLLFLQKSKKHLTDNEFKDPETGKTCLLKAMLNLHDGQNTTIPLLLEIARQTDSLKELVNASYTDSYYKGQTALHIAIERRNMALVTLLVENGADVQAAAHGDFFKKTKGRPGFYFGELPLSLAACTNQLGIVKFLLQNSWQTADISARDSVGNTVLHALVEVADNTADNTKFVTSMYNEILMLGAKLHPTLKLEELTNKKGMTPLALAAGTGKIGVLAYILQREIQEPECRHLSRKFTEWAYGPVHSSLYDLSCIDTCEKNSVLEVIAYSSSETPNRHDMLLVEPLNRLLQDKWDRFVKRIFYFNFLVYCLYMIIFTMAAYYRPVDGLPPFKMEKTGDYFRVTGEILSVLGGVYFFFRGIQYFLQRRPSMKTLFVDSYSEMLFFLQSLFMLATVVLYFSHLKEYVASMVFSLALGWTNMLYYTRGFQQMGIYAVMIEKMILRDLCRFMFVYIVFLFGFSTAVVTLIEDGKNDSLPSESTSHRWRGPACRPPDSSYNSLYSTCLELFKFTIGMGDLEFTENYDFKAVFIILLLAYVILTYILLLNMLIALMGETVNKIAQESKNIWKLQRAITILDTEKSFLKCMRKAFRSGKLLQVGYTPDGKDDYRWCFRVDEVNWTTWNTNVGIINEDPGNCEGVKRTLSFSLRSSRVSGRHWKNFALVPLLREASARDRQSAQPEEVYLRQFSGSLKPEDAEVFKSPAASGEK
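TRPV1-expressing cells were cultured overnight at 35.5C and loaded with Fluo-8 calcium dye for 40 to 90 min at room temperature. After a 10 s baseline, compound was added and calcium influx was read kinetically for 3 min (ex 480/em 520 nm).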
Six1-Eya2 inh = Six1/Eya2 interaction inhibition; activity change, % (concentration not given with the values); 0.56% of 360,000 active; AlphaScreen GST-Six1/His-Eya2 binding, biochemical; stronger effect = lower value; control for the full effect not named in the record; in the data active = activity change below about -65%; inconclusive = about -30% to -65%; inactive = above about -30%; further: on the % scale 0 is the no-effect control and ±100 the full control effect
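Homogeneous AlphaScreen proximity assay pairing GST-Six1 with His-tagged Eya2 (added as 5X mix: 250 nM and 500 nM) in 50 mM Tris pH 8.0, 300 mM NaCl, 1 mM TCEP. Glutathione donor and nickel acceptor beads; 1 h, 37 °C, dark.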
D2 ag = activates the human D2 dopamine receptor. DiscoveRx PathHunter D2 beta-arrestin, luminescence, 90 min; 100% = 57 uM dopamine signal. activation, % (concentration not given with the values). 0.084% of 360,000 active. AID 624465. P14416; in the data active = activation above about 40%; inconclusive = about 15% to 40%; inactive = below about 15%; further: compound concentration not given in the record; the text of the record calls up to 30% inactive
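DiscoveRx PathHunter D2 beta-arrestin cells (2,100/well) attached overnight, then compound-stimulated 90 min at 37 C in HBSS/10 mM HEPES/0.1% Tween-20 buffer; beta-galactosidase complementation read by luminescence after 1 h at ambient temperature. Dopamine 57 uM final (EC100) as control.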
D2 PAM = positive allosteric modulators of human D2 dopamine receptor; P14416; 0.23% of 360,000 active; potentiation, % (concentration not given with the values); AID 624464; DiscoveRx D2 beta-arrestin cells, luminescence, 90 min; 100% = 57 uM dopamine signal; active = potentiation of 50% or more; inconclusive = 30% to 50%; inactive = 30% or less;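 further: compound concentration not given in the record; tested on top of an EC20 dose of dopamine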
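PathHunter D2 cells, attached overnight at 37 deg C, received compound in DMSO plus dopamine at EC20 (50 nM final) for 90 min at 37 deg C. Beta-arrestin recruitment was read as luminescence after 1 h with detection reagent at ambient temperature.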
PINK1 modulator = changes PINK1 expression. PINK1 immunofluorescence, high-content cytometry, 24 h. Potency, µM (highest dose often 76.6 µM), for inactives: top-dose activation (PINK1 increase), hits mostly activators. 0.2% of 410,000 active; active = well fitted activation curve with a large enough effect; inconclusive = small, poorly fitted or top-dose-only effect; inactive = flat fitted curve, though single readings scatter; cell line not stated here;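 further: potency means the concentration at half of the fitted maximal effect; % of control where 0% means no effect; nearly all actives have a fitted effect of over 65% in size; a mitochondrial uncoupler was the plate control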
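Stable cell line treated 24 h with compounds at 5 concentrations (CCCP controls), then fixed and immunostained for PINK1 plus nuclear and cell stains; PINK1 immunofluorescence quantified by laser-scanning microplate cytometry.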
Sfp inh = inhibitors of Bacillus subtilis Sfp phosphopantetheinyl transferase; 3.5% of 310,000 active; Potency, µM, for the others: max response, negative = inhibition, usual class: inhibitors; AID 1490; Biochemical Sfp PPTase activity, qHTS; active means well fitted inhibition curve with a large enough effect; inconclusive means small, poorly fitted or top-dose-only effect, or another doubt; inactive means no such curve, though single readings can be large or run the other way;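 further: the enzyme is Sfp with the accession as filed and its product quenches rhodamine fluorescence; potency means the concentration at half of the fitted maximal effect; 0% = enzyme reaction without inhibitor and -100% = no enzyme wells; top concentration of the series not given in the record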
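Compounds were incubated with enzyme (final 15 nM) for 15 min at room temperature before substrate addition started the reaction. Fluorescence at 525 nm excitation, 598 nm emission was recorded immediately and after 30 minutes.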
Active calls of the source: *; ? = inconclusive; · = not tested or not shown; & = joins results of further samples; [ ] = remark or other dose.

no.	Compound	TRPV1 PAM	D2 PAM	CtBP-E1A blk	Six1-Eya2 inh	Sfp inh	PINK1 modulator	D2 ag
1	CCNC(=S)N1CCC(NC(=O)C2CCCCC2)CC1	-7.9	-14.9	3.7	1.7	9.8%	2.0%	-2.6
2	O=C(OCC(=O)N1CCN(S(=O)(=O)c2ccccc2)CC1)c1ccc([N+](=O)[O-])o1	3.4	21.3	5.2	3.0	11.0%	0.4%	10.3
3	Cc1cc(C)c(-c2cc(NC(=O)CSc3nncn3C)n(-c3ccccc3)n2)cc1C	1.4	-39.7	-0.7	-8.0	-3.2%	2.8%	-2.0
4	c1cc(-c2ccsc2)n2cnnc2c1	·	-8.4	-1.2	-1.5	·	-0.1%	-1.5
5	O=C(CSCc1ccccc1Cl)Nc1ccc(C(=O)O)cc1	?	-1.6	-2.9	15.4	27.9%	1.9%	-0.4
6	Cc1onc(-c2c(Cl)cccc2Cl)c1C(=O)NC(C)(C)CO	0.9	-15.0	-0.6	7.9	6.2%	2.0%	-2.2
7	COCCN1CC(=O)N2C(c3cccc(OC)c3)c3[nH]c4ccccc4c3C[C@H]2C1=O (stereo partly specified)	3.2	-4.0	1.5	-0.3	1.5%	1.2%	-3.8
8	CC(C)NC(=O)c1cc2c(C(F)(F)F)nn(C)c2s1	11.5	-14.3	4.2	-0.5	-0.5%	0.0%	-1.7
9	Cc1ccc(CNC(=O)CCn2cc(-c3ccc(F)cc3)nc2-c2ccncc2)cc1	-21.3	-15.8	-10.3	-6.4	·	0.7%	-2.9
10	O=S(=O)(NCC(c1ccco1)N1CCc2ccccc2C1)c1ccc(Br)cc1 (stereo unspecified)	4.0	-4.8	0.2	-0.9	·	?	1.3
11	CN(C)CCCNCCCNC(=O)/C(=N\O)c1ccccn1	5.5	-8.5	?	?	?	-2.6%	-1.1
12	O=C(Nc1cccc([N+](=O)[O-])c1)Nc1cccs1	-12.8	-6.1	-11.4	-17.7	-27.2%	29.0%	-8.8
13	Cc1ccc(/C=N/NC(=O)Cc2ccc(Cl)cc2)s1	-27.3	-24.2	-23.8	-13.5	11.9%	2.6%	-5.8
14	Cn1c(N2CCN(c3ccccn3)CC2)nc2c1c(=O)n(Cc1ccccc1Cl)c(=O)n2C	·	-16.0	33.6	22.8	·	1.2%	-1.8
15	CCn1cc(C2=NC(CCSC)CO2)c2ccccc21 (stereo unspecified)	-9.7	-10.7	-0.6	-10.2	-4.5%	1.0%	-2.0
16	O=C(Nc1ccc(C(F)(F)F)cc1)c1ccccc1	13.7	-3.0	0.3	1.1	·	2.3%	-3.9
17	CCCn1c(N)c(N(CCOC)C(=O)CSc2c(Cl)cccc2Cl)c(=O)[nH]c1=O	·	1.8	0.0	-0.7	·	0.9%	-3.7
18	Cc1ccc(CNC(=O)CSc2nnc3c(n2)[nH]c2ccccc23)cc1	5.3	-8.1	1.7	-4.5	-12.9%	11.8%	-4.5
19	CC(C)Oc1cc(F)ccc1-c1cc(C(=O)Nc2cccc(C(F)(F)F)c2)[nH]n1	·	-6.6	14.6	4.2	·	?	9.7
20	CCCNC(=O)c1cc(C2CCCN(C(=O)c3ccc4ccccc4c3)C2)on1 (stereo unspecified)	·	-14.3	0.7	0.9	·	0.7%	-4.5
21	O=[N+]([O-])c1cc([N+](=O)[O-])c2cc3ccccc3nc2c1	-11.8	27.9	16.3	-2.9	-5.9%	19.8%	4.1
22	Cc1sc2nc(CN3CCN(c4ccc(O)cc4)CC3)[nH]c(=O)c2c1C	9.8	-9.6	1.1	-16.1	35.5µM*	0.2%	3.1
23	COc1ccccc1N(CCC#N)C(=O)COC(=O)CCC(=O)c1ccc(F)cc1	-4.4	-8.7	·	9.0	·	1.6%	-0.3
24	CCCC(=O)Nc1ccc(Cl)c(NC(=O)c2ccc([N+](=O)[O-])cc2Cl)c1	4.0	-4.9	16.4	23.3	0.9%	-0.8%	2.1
25	Cc1ccc(C)n1CCN1CCN(CC(=O)Nc2ccc(S(N)(=O)=O)cc2)CC1	15.4	3.9	3.3	-0.2	-3.0%	2.5%	0.6
26	CCCC(=O)Nc1ccc(Cl)c(NC(=O)c2cccnc2)c1	-7.7	-28.8	1.4	4.8	-1.4%	·	-0.1
27	Cc1cc2ccc(C)c(C)c2nc1SCC(=O)c1cccs1	5.2	-7.5	29.6	18.1	-9.3%	0.2%[38.3 µM]	-2.6
28	CCOC(=O)c1cnc(SCC(=O)OCC(=O)NC2CCS(=O)(=O)C2)nc1N (stereo unspecified)	6.4	11.0	-14.2	5.1	·	1.8%	0.8
29	O=C(CCN1C(=O)/C(=C\c2cccc(Br)c2)SC1=S)N1CCOCC1	-7.5	0.2	7.5	0.4	12.4%	3.4%	-1.1
30	Cc1ccccc1OCCCN1CCOCC1	-23.6	-16.5	3.4	3.8	11.1%	-0.9%	-5.8
31	CSc1nnc2c3ccccc3n(Cc3ccccc3)c2n1	14.1	-3.0	7.4	14.9	0.8%	5.7%	1.7
32	CC(=O)N[C@@H](Cc1c[nH]c2ccccc12)C(=O)OCC(=O)Nc1cc(C)on1	·	-4.0	1.3	-3.5	·	-1.0%	0.1
33	Cn1c(=O)c2[nH]c(C3CC4CCC3C4)nc2n(C)c1=O (stereo unspecified)	·	-14.7	-12.0	10.1	·	0.0%	-0.3
34	Cc1ccc(-c2noc(CN(C)C(=O)c3ccc(Br)o3)n2)cc1	-15.2	1.2	0.1	-11.6	·	-0.2%	-5.2
35	Cc1[nH]nc(-c2ccc(O)cc2O)c1-c1ccc(Cl)cc1	0.9	1.6	-12.1	-6.3	17.4%	1.1%	0.7
36	Cc1cc(C)c(S(=O)(=O)NC2CC(C)(C)NC(C)(C)C2)cc1C	3.0	1.0	5.8	0.6	4.6%	-1.6%	-3.1
37	COc1ccc(-c2nc(CN3CCN(Cc4cccc(F)c4)CC3)c(C)o2)cc1	-6.6	-15.7	-8.8	-7.7	13.0%	4.0%	2.9
38	CCc1cc2c(=O)c(-c3nc4ccccc4n3C)c(COCC(=O)O)oc2cc1O	15.5	5.9	0.8	-0.2	13.1%	0.5%[38.3 µM]	-1.1
39	CCCCOC(=O)c1ccc(N/C(=N\S(=O)(=O)c2ccccc2)c2ccccc2)cc1	3.4	-4.8	-0.1	-13.6	8.1%	2.7%	-11.8
40	COc1ccc(C2=NS(=O)(=O)N(C)C(C(=O)NCc3ccc(F)cc3)=C2)cc1OC	0.2	-4.6	-3.7	0.1	5.9%	-0.1%	-7.8
41	CN(C)Cc1cnc2ccc(Cl)cn12	8.0	-3.3	8.9	-0.1	10.3%	3.6%	-2.3
42	COc1cc(C)ccc1OCCOCCOc1c(C)cc(C)cc1Br	9.5	-8.0	54.6	47.0	2.4%	3.1%	4.2
43	O=c1[nH]c2ccc(NC(=S)NCCc3ccccc3)cc2[nH]1	9.5	-8.6	-15.9	-1.3	-41.1%	-1.0%	4.6
44	CNC(=O)C[C@H]1C(=O)N(c2ccc(Br)cc2)C[C@@H]1CSC	·	1.8	6.2	0.6	·	0.9%	-1.5
45	COc1cc(/C=C/C(=O)N[C@@H](Cc2c[nH]c3ccccc23)C(=O)O)ccc1O	-3.7	-7.0	-5.4	1.7	9.5%	3.2%	-2.3
46	COc1cc(OC)cc(-c2nc(-c3ccccc3)no2)c1	3.0	8.2	7.4	4.5	?	3.4%	-1.3
47	O=C(N/N=C/c1ccccc1C(=O)O)c1cc(-c2ccc3c4c(cccc24)CC3)n[nH]1	?	-3.3	-27.0	-16.1	16.3%	3.4%	-2.7
48	O=C1C=CC2=C3c4cc(O)c(O)cc4CC3(O)COC2=C1O (stereo unspecified)	·	2.6	?	?	14.1µM*	-0.5%&2.0%	9.3
49	Cc1cccc(OCC(=O)Nc2ccc(N3CCN(C(=O)c4ccccc4)CC3)cc2)c1	?	11.1	-2.2	-5.8	-9.9%	-0.3%	4.4
50	CCN(Cc1ccccc1)C(=O)c1cc(S(=O)(=O)N2CCOCC2)ccc1N1CCCC1	4.9	12.6	-3.1	7.4	·	1.5%	-5.7
51	CCCCOCCCNC(=O)C[C@@H]1C[C@@]2(C(=O)OCC)CCC=C2N(Cc2ccc(Cl)cc2Cl)C1=O	·	·	3.1	-7.5	·	28.2%	·
52	CCc1nc2c(c(=O)c3ccccc3n2C)c(=O)n1C1CCCCCC1	-23.4	-13.1	0.6	2.8	-29.8%	-1.1%	-1.0
53	CC(NC(=O)c1ccc(F)cc1)C1CC2CCC1C2 (stereo unspecified)	4.1	-2.8	-1.4	7.5	8.5%	3.3%	0.2
54	C=CCN(C(=O)c1csnn1)C(C(=O)NC1CCCCC1)c1ccc(F)cc1 (stereo unspecified)	-3.2	-27.7	29.7	1.7	9.5%	0.2%	-1.4
55	CCC(C)(C)NC(=O)C(c1ccc(OC)cc1)N(C(=O)CCC(=O)Nc1cc(C)on1)c1ccc2c(c1)OCO2 (stereo unspecified)	-4.4	-21.9	-5.7	-2.5	2.0%	1.9%	-6.1
56	CCCOc1ccc(C2C(C(=O)OC)=CN(CCOC)C=C2C(=O)OC)cc1	-23.8	-20.5	23.2	35.7	1.8%	2.5%	-5.0
57	N=c1c(C(=O)NCCN2CCOCC2)cc2c(=O)n3ccccc3nc2n1CCc1ccccc1	-37.6	-4.8	-27.6	-24.4	1.0%	0.7%	-4.8
58	O=C(Nc1ccc(Cl)cc1C(=O)NCCN1CCOCC1)c1ccc(Cl)cc1Cl	-1.4	-13.2	-7.7	-13.3	4.5%	1.0%	-2.9
59	CCOC(=O)CCc1c(C)c2c(C)nn(-c3ccccc3)c2[nH]c1=O	1.3	-1.8	-7.9	-2.5	6.2%	7.8%	-2.0
60	Cc1ccc(S(=O)(=O)N(c2nc(N(C)C)nc(N(C)C)n2)n2cnnc2)cc1	-4.0	0.6	1.2	-3.1	-2.0%	3.6%[38.3 µM]	-0.7

Compound profiles, from the list above. Order of screens: TRPV1 PAM, D2 PAM, CtBP-E1A blk, Six1-Eya2 inh, Sfp inh, PINK1 modulator, D2 ag
Cc1ccc(S(=O)(=O)N(c2nc(N(C)C)nc(N(C)C)n2)n2cnnc2)cc1 reads -4.0, 0.6, 1.2, -3.1, -2.0%, 3.6%[38.3 µM], -0.7
CCC(C)(C)NC(=O)C(c1ccc(OC)cc1)N(C(=O)CCC(=O)Nc1cc(C)on1)c1ccc2c(c1)OCO2 (stereo unspecified) reads -4.4, -21.9, -5.7, -2.5, 2.0%, 1.9%, -6.1
